FGF22 binding – binders of recombinant human FGF22 by thermal shift; 340,000 compounds, 1.5% hits; Q9HCT0; SYPRO orange fluorescence; percent of sucrose octasulfate shift, DMSO zero; AID 651658; calls only at 9.99 µM;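 active = melting point raised past a set limit in the mean and every replicate; inconclusive = no clear call; three in four hits are not shown here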
Target sequence (Q9HCT0 whole entry, looked up): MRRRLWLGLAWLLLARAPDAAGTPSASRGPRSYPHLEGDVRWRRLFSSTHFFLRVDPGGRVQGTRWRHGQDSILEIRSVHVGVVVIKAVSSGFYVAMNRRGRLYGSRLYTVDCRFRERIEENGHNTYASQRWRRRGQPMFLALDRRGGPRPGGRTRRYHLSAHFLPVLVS
MLL AF4-AF9 inh – MLL-AF4/AF9 protein interaction inhibition; P42568; AlphaScreen, biotin-AF4 peptide binding to FLAG-AF9; inhibition, % at 10 µM; 350,000 compounds, 0.47% hits; AID 651704;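 active = every replicate reaching a set inhibition limit, whatever the replicate mean, cut at about 25% in these data; inconclusive = mean inhibition reaches that limit but some replicates miss it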;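 note: 0% = plate neutral control median and 100% = total signal loss; the record names both 10 and 1 µM as test concentration; the first replicate is given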
Target sequence (P42568 whole entry, looked up): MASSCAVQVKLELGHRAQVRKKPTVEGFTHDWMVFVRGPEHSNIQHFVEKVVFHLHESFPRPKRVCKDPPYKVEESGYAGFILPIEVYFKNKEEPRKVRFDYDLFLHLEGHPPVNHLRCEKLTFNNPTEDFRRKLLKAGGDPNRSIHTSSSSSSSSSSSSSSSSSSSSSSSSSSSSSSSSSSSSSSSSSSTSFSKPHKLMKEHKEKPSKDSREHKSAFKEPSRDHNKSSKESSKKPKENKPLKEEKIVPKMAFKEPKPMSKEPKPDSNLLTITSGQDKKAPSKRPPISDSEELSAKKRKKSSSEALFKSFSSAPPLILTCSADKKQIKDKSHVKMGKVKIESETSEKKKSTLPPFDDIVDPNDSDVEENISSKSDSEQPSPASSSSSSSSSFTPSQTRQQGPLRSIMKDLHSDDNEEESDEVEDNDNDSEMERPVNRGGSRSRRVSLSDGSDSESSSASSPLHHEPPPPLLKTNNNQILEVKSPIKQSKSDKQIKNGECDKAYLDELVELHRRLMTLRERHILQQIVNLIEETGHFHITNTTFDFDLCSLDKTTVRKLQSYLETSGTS
* hit, by the source's call; i = inactive; ? = inconclusive; + = active, no number.

SMILES | FGF22 binding | MLL AF4-AF9 inh
COc1ccc(S(=O)(=O)N(C)C[C@H]2Oc3ccc(NC(=O)Nc4ccccc4)cc3CC(=O)N([C@H](C)CO)C[C@H]2C)cc1 | i | 3.7
CCNC(=O)C[C@H]1CC[C@H]2[C@@H](COC[C@H](O)CN2C(=O)Nc2c(C)noc2C)O1 | i | -0.4
C[C@@H]1CN([C@@H](C)CO)C(=O)Cc2cc(NC(=O)CCN3CCOCC3)ccc2O[C@@H]1CN(C)Cc1ccc(-c2ccccc2)cc1 | i | 10
COc1ccc(S(=O)(=O)N(C)C[C@@H]2Oc3ccc(NC(=O)Cc4cn(C)c5ccccc45)cc3CC(=O)N([C@H](C)CO)C[C@@H]2C)cc1 | i | 1.1
COc1cccc(CN2[C@H](CO)[C@H]3c4ccccc4N(C(=O)CC(F)(F)F)C[C@H]32)c1 | i | 0.2
O=C(CN1CCOCC1)N[C@@H]1CC[C@H](CCNC(=O)C2CCCCC2)O[C@@H]1CO | i | -2.1
COCC(=O)N1[C@@H](C#N)[C@@H](c2ccccc2-c2cccc(C)c2)[C@@H]1CO | i | -2.1
C[C@@H]1CN([C@H](C)CO)C(=O)Cc2cc(NC(=O)Nc3ccccc3)ccc2O[C@H]1CN(C)Cc1ccc(Oc2ccccc2)cc1 | i | 2.3
C[C@@H]1CN([C@@H](C)CO)C(=O)c2cc(NS(=O)(=O)c3ccc(F)cc3)ccc2O[C@@H]1CN(C)C(=O)Nc1cccc2ccccc12 | i | -1.5
O=C(CCN1CCCCC1)N[C@H]1CC[C@H](CCNS(=O)(=O)c2ccccc2)O[C@@H]1CO | i | 1.5
O=C(c1ccccn1)N1C[C@@H]2[C@H](c3ccccc31)[C@H](CO)N2C(=O)C1CCCCC1 | i | -1.9
CCCNC(=O)C[C@@H]1CC[C@H]2[C@@H](COC[C@H](O)CN2C(=O)C2CCOCC2)O1 | i | -2.4
COc1ccc(S(=O)(=O)Nc2ccc3c(c2)C(=O)N([C@@H](C)CO)C[C@@H](C)[C@H](CN(C)S(=O)(=O)c2cn(C)cn2)OCCCC[C@H](C)O3)cc1 | i | -2.3
C[C@@H]1CCCCO[C@@H](CN(C)C(=O)Nc2cccc3ccccc23)[C@H](C)CN([C@@H](C)CO)C(=O)c2cc(NS(C)(=O)=O)ccc2O1 | i | 5.3
N#C[C@@H]1[C@H](c2ccccc2)[C@@H](CO)N1C(=O)Nc1cccc(F)c1 | i | 1.1
C[C@@H]1CN([C@@H](C)CO)C(=O)c2cccc(NC(=O)Nc3ccccc3)c2O[C@H]1CN(C)C | i | -2.5
C[C@H](CO)N1C[C@H](C)[C@@H](CN(C)S(=O)(=O)c2ccc(Cl)cc2)Oc2c(NC(=O)Nc3ccccc3)cccc2C1=O | i | 2.7
CCCNC(=O)Nc1ccc2c(c1)C(=O)N(C)C[C@H](OC)[C@H](C)CN(C(=O)C1CC1)[C@H](C)CO2 | i | -0.2
O=C(C1CCOCC1)N1CC(=O)N2[C@H](CO)[C@@H](c3ccc(C#CC4CCCCC4)cc3)[C@@H]2C1 | i | 4.8
C[C@@H]1CN([C@@H](C)CO)C(=O)c2cc(NC(=O)Cc3ccccc3)ccc2O[C@@H](C)CCCCO[C@@H]1CN(C)C(=O)c1ccncc1 | i | -2.2
C[C@@H]1CN([C@H](C)CO)S(=O)(=O)c2ccc(/C=C/c3ccccc3)cc2O[C@@H]1CN(C)Cc1cncnc1 | i | 20
Cc1ccc(S(=O)(=O)Nc2cccc3c2O[C@@H](CN(C)Cc2ccc(C(F)(F)F)cc2)[C@@H](C)CN([C@H](C)CO)C3=O)cc1 | i | 1.6
CC(C)COC(=O)N(C)C[C@@H]1OCc2ccccc2-c2c(n(C)c3ccccc23)C(=O)N([C@@H](C)CO)C[C@@H]1C | i | 1.1
CC(=O)N(C)C[C@H]1Oc2cc(/C=C/c3ccccc3)ccc2S(=O)(=O)N([C@@H](C)CO)C[C@@H]1C | i | 5.4
C[C@H](CO)N1C[C@H](C)[C@@H](CN(C)Cc2ccc(Cl)c(Cl)c2)OCCCC[C@H](C)Oc2ccc(NC(=O)c3ccccc3)cc2C1=O | i | -2.1
O=C(C[C@@H]1C[C@H]2c3cc(NC(=O)C4CCC4)ccc3O[C@H]2[C@@H](CO)O1)NCc1cccnc1 | i | -15
COc1ccc(NC(=O)Nc2ccc3c(c2)C(=O)N([C@@H](C)CO)C[C@H](C)[C@H](CN(C)Cc2ccc(C(F)(F)F)cc2)OCCCC[C@@H](C)O3)cc1 | i | -2.0
CCCC(=O)Nc1ccc2c(c1)C(=O)N(C)C[C@@H](OC)[C@@H](C)CN(C(=O)c1ccccn1)[C@H](C)CO2 | i | -0.1
COc1ccc(C(=O)Nc2ccc3c(c2)C(=O)N(C)[C@@H]2CC[C@@H](CC(=O)NCC4CC4)O[C@H]2CO3)cc1 | i | -1.9
C[C@@H]1CN([C@H](C)CO)C(=O)Cc2cc(NC(=O)Cc3cn(C)c4ccccc34)ccc2O[C@@H]1CN(C)CC1CCCCC1 | i | 12

In the list so far, these have a cyano group.
SMILES | FGF22 binding | MLL AF4-AF9 inh
COCC(=O)N1[C@@H](C#N)[C@@H](c2ccccc2-c2cccc(C)c2)[C@@H]1CO | i | -2.1
N#C[C@@H]1[C@H](c2ccccc2)[C@@H](CO)N1C(=O)Nc1cccc(F)c1 | i | 1.1

Remaining list, next part.
SMILES | FGF22 binding | MLL AF4-AF9 inh
CC(C)CC#Cc1cnc2c(c1)C(=O)N([C@@H](C)CO)C[C@@H](C)[C@H](CN(C)Cc1ccc(F)cc1)O2 | i | 6.8
C[C@H]1CN([C@@H](C)CO)S(=O)(=O)c2ccc(-c3cncnc3)cc2O[C@H]1CN(C)C(=O)C1CCC1 | i | -0.2
C[C@@H]1CN([C@@H](C)CO)C(=O)c2cc(NS(=O)(=O)c3ccc(Cl)cc3)ccc2O[C@@H]1CN(C)Cc1ccncc1 | i | -3.3
C[C@H](CO)N1C[C@H](C)[C@@H](CN(C)Cc2ccccc2)Oc2ncc(C#CCN(C)C)cc2C1=O | i | -3.1
COc1ccc(CN(C)C[C@H]2Oc3ccc(NC(=O)Cc4ccccc4)cc3CC(=O)N([C@@H](C)CO)C[C@@H]2C)cc1 | i | -7.5
COc1ccc(NC(=O)Nc2cccc3c2O[C@H](CN(C)S(=O)(=O)c2cn(C)cn2)[C@@H](C)CN([C@@H](C)CO)C3=O)cc1 | i | -1.1
C[C@H]1CN([C@@H](C)CO)S(=O)(=O)c2ccc(C#CCN(C)C)cc2O[C@@H]1CN(C)C | i | -1.7
CCC(=O)N1C[C@H](C)[C@H](OC)CN(C)C(=O)c2cc(NC(=O)Nc3cccc(F)c3)ccc2OC[C@@H]1C | i | 2.8
C[C@@H]1CN([C@@H](C)CO)S(=O)(=O)c2ccc(-c3cccc(C#N)c3)cc2O[C@@H]1CN(C)C(=O)Nc1cc(F)ccc1F | + | -1.3
Cc1noc(C)c1S(=O)(=O)Nc1ccc2c(c1)C(=O)N([C@@H](C)CO)C[C@H](C)[C@H](CN(C)Cc1ccncc1)OCCCC[C@@H](C)O2 | i | 2.7
Cc1ccc(S(=O)(=O)Nc2ccc3c(c2)C(=O)N([C@@H](C)CO)C[C@H](C)[C@H](CN(C)Cc2ccncc2)O3)cc1 | i | 0.0
COC(=O)C[C@@H]1CC[C@H]2[C@H](COc3ccc(NC(=O)c4ccc(F)c(F)c4)cc3C(=O)N2C)O1 | i | -4.0
CC(=O)N(C)C[C@@H]1Oc2ncc(-c3cccc(F)c3)cc2C(=O)N([C@H](C)CO)C[C@H]1C | i | -3.5
O=C(C[C@@H]1CC[C@H]2[C@@H](COC[C@@H](O)CN2S(=O)(=O)c2ccc(Cl)cc2)O1)N[C@@H]1CCN(Cc2ccccc2)C1 | i | 2.5
Cc1cccc(S(=O)(=O)N2CCCCN3[C@H](CO)[C@H](c4ccc(C#CC5CC5)cc4)[C@@H]3C2)c1 | i | -4.6
O=C(C1CCOCC1)N1CC(=O)N2[C@H](C1)[C@@H](c1ccc(C#Cc3cccc(F)c3)cc1)[C@@H]2CO | i | -1.6
CCCC(=O)N1CCC2(CC1)CN(C(=O)CC)[C@H](CO)c1c2c2ccc(OC)cc2n1C | i | -2.5
C[C@H](CO)N1C[C@H](C)[C@@H](CN(C)C(=O)Nc2ccc3c(c2)OCO3)Oc2ccc(NC(=O)CCCCCC(=O)Nc3ccccc3N)cc2CC1=O | i | 2.1
COCC(=O)N(C[C@H]1N[C@H](CO)[C@@H]1c1ccc(-c2ccccc2)cc1)C(C)C | i | 1.8
O=C([C@H]1[C@H](CO)[C@H]2Cn3c(ccc(C4=CCCC4)c3=O)[C@@H]1N2C(=O)c1ccncc1)N1CCOCC1 | i | -0.8
COCC#Cc1ccc2c(c1)O[C@H](CN(C)S(=O)(=O)c1cccc(F)c1)[C@@H](C)CN([C@H](C)CO)S2(=O)=O | i | -1.9
C[C@H]1CN([C@@H](C)CO)C(=O)c2cc(/C=C/c3ccccc3)cnc2O[C@@H]1CN(C)C(=O)Nc1ccc(C(F)(F)F)cc1 | i | 5.4
COc1ccc(S(=O)(=O)N(C)C[C@H]2OCCCC[C@@H](C)Oc3ccc(NS(=O)(=O)c4cccs4)cc3C(=O)N([C@H](C)CO)C[C@H]2C)cc1 | i | 1.8
CCCNC(=O)Nc1ccc2c(c1)C(=O)N(C)C[C@H](OC)[C@@H](C)CN(C(=O)C1CCCCC1)[C@H](C)CO2 | i | -2.1
Cc1noc(C)c1NC(=O)N(C)C[C@H]1OCCCC[C@H](C)Oc2ccc(NS(=O)(=O)c3ccc(F)cc3)cc2C(=O)N([C@@H](C)CO)C[C@@H]1C | i | -4.0
O=C(C[C@H]1CC[C@@H]2[C@H](COC[C@H](O)CN2Cc2nccs2)O1)NCc1ccccc1F | i | -0.8
COc1ccc(NC(=O)N(C)C[C@@H]2Oc3cc(-c4cccc(C(=O)N(C)C)c4)ccc3S(=O)(=O)N([C@@H](C)CO)C[C@@H]2C)cc1 | i | 0.4
O=C(Nc1ccccc1F)N[C@H]1CC[C@H](CCNC(=O)C2CC2)O[C@@H]1CO | i | -19
COC(=O)C[C@H]1CC[C@@H]2[C@@H](COc3ccc(NC(=O)Nc4ccc(C#N)cc4)cc3C(=O)N2C)O1 | + | -8.6
Cc1ccc(-c2cnc3c(c2)C(=O)N([C@H](C)CO)C[C@@H](C)[C@H](CN(C)C(=O)CN(C)C)O3)cc1 | i | -0.7

Looked up by compound from the list above (5):
SMILES | FGF22 binding | MLL AF4-AF9 inh
O=C(C[C@H]1CC[C@@H]2[C@H](COC[C@H](O)CN2Cc2nccs2)O1)NCc1ccccc1F | i | -0.8
Cc1noc(C)c1NC(=O)N(C)C[C@H]1OCCCC[C@H](C)Oc2ccc(NS(=O)(=O)c3ccc(F)cc3)cc2C(=O)N([C@@H](C)CO)C[C@@H]1C | i | -4.0
O=C(Nc1ccccc1F)N[C@H]1CC[C@H](CCNC(=O)C2CC2)O[C@@H]1CO | i | -19
O=C(C1CCOCC1)N1CC(=O)N2[C@H](C1)[C@@H](c1ccc(C#Cc3cccc(F)c3)cc1)[C@@H]2CO | i | -1.6
CCCC(=O)N1CCC2(CC1)CN(C(=O)CC)[C@H](CO)c1c2c2ccc(OC)cc2n1C | i | -2.5

Next section.
SMILES | FGF22 binding | MLL AF4-AF9 inh
O=C(C[C@@H]1C[C@H]2c3cc(NS(=O)(=O)c4ccc(F)cc4)ccc3O[C@H]2[C@H](CO)O1)N1CCc2ccccc2C1 | i | 2.2
C[C@@H]1CN([C@@H](C)CO)C(=O)c2cc(NS(=O)(=O)c3cccs3)ccc2O[C@H]1CN(C)Cc1ccc(C(=O)O)cc1 | i | -2.2
O=C(C[C@@H]1CC[C@@H]2[C@H](COC[C@H](O)CN2Cc2cccc(F)c2)O1)NCc1ccncc1 | i | -2.6
COc1cccc(-c2ccc3c(c2)O[C@H](CN(C)C(=O)C2CC2)[C@@H](C)CN([C@H](C)CO)S3(=O)=O)c1 | i | 0.9
COc1ccc(-c2ccc3c(c2)[C@@H]2[C@@H](CCN2S(=O)(=O)C2=NC(C)C=N2)[C@H](CO)N3C)cc1 (stereo not given in full) | i | 0.2
COc1ccc(NC(=O)N(C)C[C@@H]2Oc3ccc(NS(=O)(=O)c4cn(C)cn4)cc3C(=O)N([C@H](C)CO)C[C@@H]2C)cc1 | i | -2.6
C[C@H](CO)N1C[C@H](C)[C@H](CN(C)Cc2cccnc2)Oc2ncc(-c3cccc(C#N)c3)cc2C1=O | i | -4.8
Cc1noc(C)c1S(=O)(=O)Nc1ccc2c(c1)C(=O)N([C@H](C)CO)C[C@@H](C)[C@@H](CN(C)Cc1ccncc1)O2 | i | -3.0
O=C(Cc1ccccn1)NCC[C@H]1CC[C@@H](NC(=O)Nc2ccc(F)cc2)[C@H](CO)O1 | i | -0.2
O=C(Nc1ccc2c(c1)[C@H]1C[C@@H](CC(=O)N3CCCCC3)O[C@H](CO)[C@H]1O2)NC1CCCCC1 | i | -0.8
CCC(=O)N[C@@H]1C=C[C@H](CC(=O)NCc2cc(F)cc(F)c2)O[C@H]1CO | i | -2.3
O=C(Cc1ccccn1)N1CC(=O)N2[C@H](CO)[C@@H](c3ccc(C#CCC4CCCC4)cc3)[C@H]2C1 | i | 6.2
COC(=O)[C@@H]1[C@@H](CO)[C@@H]2Cn3c(ccc(-c4ccccc4)c3=O)[C@@H]2N1Cc1ccccc1F | i | ?
C[C@@H]1CN([C@H](C)CO)C(=O)c2cc(/C=C/c3ccccc3)cnc2O[C@H]1CN(C)C(=O)c1ccccc1 | i | 6.9

Screening results: PubChem BioAssay, Broad Institute

These rows are one share of the data; the hit share may differ from the screen's.
